Screens (PubChem)
TRPV1 potentiator – HTS Assay for Compounds that Act as Potentiators of the Vanilloid Receptor 1; Transient receptor potential cation channel subfamily V member 1 (Homo sapiens), Q8NER1; 320,000 compounds, 0.02% hits; TRPV1-expressing cells, Fluo-8 calcium influx, capsaicin EC20 potentiation; host cell line not named in the record; control for the full effect not named in the record; potentiation, % at 8.33 µM; active means potentiation above 80%; inconclusive means 30% to 80%; inactive means below 30%; note: 0% is about no effect
Target sequence (Q8NER1 whole entry, looked up): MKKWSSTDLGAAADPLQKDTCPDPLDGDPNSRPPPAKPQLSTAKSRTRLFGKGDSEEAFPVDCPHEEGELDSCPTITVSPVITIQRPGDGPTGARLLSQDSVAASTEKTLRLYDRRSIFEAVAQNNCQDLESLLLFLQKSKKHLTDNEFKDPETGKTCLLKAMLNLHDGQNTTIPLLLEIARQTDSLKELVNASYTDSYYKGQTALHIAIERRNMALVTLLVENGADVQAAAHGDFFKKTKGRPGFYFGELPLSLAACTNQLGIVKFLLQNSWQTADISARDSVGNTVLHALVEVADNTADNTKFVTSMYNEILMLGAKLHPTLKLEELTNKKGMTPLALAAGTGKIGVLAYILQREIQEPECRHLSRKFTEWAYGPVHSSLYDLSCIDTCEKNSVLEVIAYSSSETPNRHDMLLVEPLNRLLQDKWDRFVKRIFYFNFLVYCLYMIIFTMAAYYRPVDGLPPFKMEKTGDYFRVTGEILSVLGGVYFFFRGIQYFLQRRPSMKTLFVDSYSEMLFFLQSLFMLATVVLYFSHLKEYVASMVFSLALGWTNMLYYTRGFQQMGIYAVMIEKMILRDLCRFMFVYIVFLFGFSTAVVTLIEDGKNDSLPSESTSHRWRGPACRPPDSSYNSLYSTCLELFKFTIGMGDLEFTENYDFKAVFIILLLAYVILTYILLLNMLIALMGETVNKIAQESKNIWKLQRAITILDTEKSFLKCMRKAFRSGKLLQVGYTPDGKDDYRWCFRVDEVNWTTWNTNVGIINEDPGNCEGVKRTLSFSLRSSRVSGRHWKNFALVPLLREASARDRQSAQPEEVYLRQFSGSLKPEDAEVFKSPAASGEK
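TRPV1-expressing cells were cultured overnight at 35.5C and loaded with Fluo-8 calcium dye for 40 to 90 min at room temperature. After a 10 s baseline, compound was added and calcium influx was read kinetically for 3 min (ex 480/em 520 nm).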
ClpP mod – qHTS Assay for Activators of ClpP; ATP-dependent Clp protease proteolytic subunit (Bacillus subtilis (strain 168)), P80244; purified B. subtilis ClpP, FRET peptide cleavage, 20 min; Potency, µM (titrated, usually from 57.5 µM), for the others: at the top dose activity change, negative = active; 340,000 compounds, 1.9% hits; active = well fitted falling curve with a large enough effect; inconclusive = small, poorly fitted or top-dose-only effect; inactive = no such curve, though single readings can be large or run the other way; note: potency is the fitted concentration of half-maximal effect; the source files actives as falling curves though it sought activators and does not explain the sign; nearly all actives have a fitted effect of over 65% in size; many hits overshoot -100%
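Purified B. subtilis ClpP, 10 microg/mL final in Tris/HCl pH8 with KCl, BSA, glycerol and Tween-20, cleaved an Abz/nitrotyrosine-quenched decapeptide. Fluorescence (ex 320, em 430) was read at 0 and 20 min at room temperature. Delta was normalized to 5.8 microM ADEP and DMSO/no-enzyme controls.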
gsp antagonist – qHTS for Antagonists of gsp, the Etiologic Mutation Responsible for Fibrous Dysplasia/McCune-Albright Syndrome: qHTS; gsp-mutant cells, cAMP HTRF, 30 min; control for the full effect not named in the record; Potency, µM (doses to about 76.9 µM), for the others: at the top dose activity change, negative = inhibition, actives largely listed as inhibitors; 340,000 compounds, 0.4% hits; AID 624288, 2012; active = falling curve of any shape with a large fitted effect; inconclusive = falling curve, mostly with a smaller effect; inactive = flat or rising curve; cell line not stated here;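 note: intracellular cAMP measured with PDE inhibitor Ro 20-1724 present during compound exposure; potency is the fitted concentration of half-maximal effect; % is set by controls: 0 for no effect and ±100 for the full control effect; nearly all actives have a fitted effect of over 65% in size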
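Cells, 2000/well, grown 16–24 h in DMEM 10% FBS with 0.5 mg/ml G418, then compounds plus […] (300 uM addition stock), 30 min at 37C. cAMP read by HTRF (cAMP-d2 and anti-cAMP antibody-K in lysis buffer) after 30 min RT.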
Menin MLL FP FL – qHTS Assay for Inhibitors Targeting the Menin-MLL Interaction in MLL Related Leukemias: Competition With Fluorescein Labeled MLL-derived Peptide. Fluorescence polarization, fluorescein-MLL peptide displacement from menin. FP activity change, % at 61.4 µM. 290,000 tested, under 10 active; inconclusive = falling polarisation curve, or a change in total fluorescence; inactive = total fluorescence flat and polarisation flat or rising; no compound was filed as active; the % refers to the polarisation; negative = inhibition;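 note: % of control where 0% means no effect; inhibitors lower the polarisation; unlabelled MLL peptide was the positive control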
Sfp PPTase inh – qHTS Assay for Inhibitors of Bacillus subtilis Sfp phosphopantetheinyl transferase (PPTase); 4'-phosphopantetheinyl transferase ffp (Bacillus subtilis), Q9F4F7; Biochemical Sfp PPTase activity, qHTS; Potency, µM, for the others: max response, negative = inhibition, actives largely listed as inhibitors; 310,000 compounds, 3.5% hits; AID 1490, 2009; active = well fitted inhibition curve with a large enough effect; inconclusive = small, poorly fitted or top-dose-only effect, or another doubt; inactive = no such curve, though single readings can be large or run the other way;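 note: the enzyme is Sfp with the accession as filed and its product quenches rhodamine fluorescence; potency is the fitted concentration of half-maximal effect; 0% = enzyme reaction without inhibitor and -100% = no enzyme wells; top concentration of the series not given in the record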
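Step 1, compound plus 15 nM Sfp-PPTase, 15 min, room temperature. Step 2, add rhodamine-CoA (5 uM) and BHQ-2-YbbR (12.5 uM). Step 3, read 525/598 nm fluorescence at 0 and 30 min.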
D2 PAM – Beta-Arrestin HTS for Positive Allosteric Modulators of the Human D2 Dopamine Receptor: Potentiators | D(2) dopamine receptor (Homo sapiens), P14416 | DiscoveRx D2 beta-arrestin cells, luminescence, 90 min; 100% = 57 uM dopamine signal | potentiation, % (concentration not given with the values) | 360,000 compounds, 0.23% hits | AID 624464, 2012; active = potentiation of 50% or more; inconclusive = 30% to 50%; inactive = 30% or less;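 note: tested on top of an EC20 dose of dopamine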
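PathHunter D2 cells, attached overnight at 37 deg C, received compound in DMSO plus dopamine at EC20 (50 nM final) for 90 min at 37 deg C. Beta-arrestin recruitment was read as luminescence after 1 h with detection reagent at ambient temperature.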
gsp agonist – qHTS for Agonist of gsp, the Etiologic Mutation Responsible for Fibrous Dysplasia/McCune-Albright Syndrome: qHTS; AID 624287, 2012; 340,000 compounds, 0.13% hits; gsp mutant cells, cAMP HTRF, 30 min; control for the full effect not named in the record; Potency, µM (series often up to 76.9 µM), for the others: at the top dose activation (cAMP increase), hits mostly activators; active = well fitted activation curve with a large enough effect; inconclusive = small, poorly fitted or top-dose-only effect, or another doubt; inactive = no such curve, though single readings can be large or run the other way; cell line not stated here;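 note: phosphodiesterase inhibitor Ro 20-1724 added with compounds to block cAMP breakdown; potency is the fitted concentration of half-maximal effect; nearly all actives have a fitted effect of over 60% in size; about a fifth of the inactives were tested at one dose only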
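Cells in DMEM/10% FBS with G418 were pretreated with compounds in DMSO plus […] (300 uM stock) for 30 min at 37C. cAMP was measured by HTRF (cAMP-d2 plus anti-cAMP antibody-K) after 30 min at room temperature.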
* = called active by the depositor; ? = inconclusive; / = no result given; [ ] = remark or other dose.

compound | TRPV1 potentiator | ClpP mod | gsp antagonist | Menin MLL FP FL | Sfp PPTase inh | D2 PAM | gsp agonist
CC1CC1c1ccc(/C=C(\C#N)C(=O)Nc2cccc(Cl)c2Cl)o1 (stereo unspecified) | 2 | 0.0% | 5% | -5.8 | -9% | -17 | -37%
O=[N+]([O-])c1ccc(CSc2nnc(-c3cccnc3)o2)cc1 | -13 | 2.2% | 11% | 0.6 | 12% | 1 | -7%
COc1cccc(OCCCn2cc(/C=C3/C(=N)N4C=C(C)SC4=NC3=O)c3ccccc32)c1 | -8 | -2.5% | 0% | ? | 3% | -26 | -53%[inhibitor]
COCCn1c(SCC(=O)NC2CCCCC2)nc2c(c1=O)SCC2 | 4 | -1.4% | -5% | -2.8 | 9% | 3 | ?
Cc1ccc(NC(=O)C2CC(=O)N(c3ccc4c(c3)OCCO4)C2)cc1S(=O)(=O)N1CCCCCC1 (stereo unspecified) | 9 | / | -17% | / | / | -4 | 22%[15.4 µM]
CCOC(=O)C1CCN(C(=O)c2cc3cc4ccc(OC)cc4nc3o2)CC1 | -11 | 3.6% | -9% | / | 9% | -8 | ?
NS(=O)(=O)c1ccc(NCc2ccccc2OCc2ccc(F)cc2)cc1 | ? | -5.9% | -7% | -0.7 | -7% | 5 | -2%
O=C(CC(O)c1ccncc1)c1ccccc1O (stereo unspecified) | / | / | 3% | / | / | -14 | -65%[inhibitor]
COCCN(CC(=O)NCC1CCCO1)C(=O)CCC(=O)Nc1ccccn1 (stereo unspecified) | 12 | / | 10% | 0.6 | 17% | -8 | 3%[15.4 µM]
CCOc1ccc(NC(=O)CSc2nnc(Cn3cnc4ccccc43)n2C)cc1 | -4 | 1.0% | -16% | -0.4 | -1% | 10 | ?
O=C(Nc1cc2c3c(c1)CC(=O)N3CCC2)c1ccc(Br)o1 | -13 | 6.0% | -7% | / | / | -19 | -55%[inhibitor]
CCC(C(=O)O)N1C(=O)/C(=C/C(C)=C/c2ccccc2)SC1=S (stereo unspecified) | 1 | / | -10% | 15 | ? | -11 | 26%[15.4 µM]

(further entries)
compound | TRPV1 potentiator | ClpP mod | gsp antagonist | Menin MLL FP FL | Sfp PPTase inh | D2 PAM | gsp agonist
CCOC(=O)Nc1c(C(=O)OC)[nH]c2cc(OC)ccc12 | -15 | ? | -5% | 0.4 | 5% | -7 | -30%[inhibitor]
O=C(NCCN1CCOCC1)C(=O)NCc1ccc2c(c1)OCO2 | 0 | / | 10% | -0.1 | -1% | 2 | 5%
Cc1nonc1CN(C)C(=O)c1ccc(OC2CCN(C(=O)c3cccnc3)CC2)cc1 | -1 | -2.2% | -1% | -1.1 | 23% | -9 | 2%[15.4 µM]
COc1ccc(CCC(=O)NCc2cccc(C(F)(F)F)c2)cc1 | -18 | -1.1% | 3% | 4.7 | 17% | -6 | 5%
CCN1CCN(c2ccc(S(=O)(=O)N3CCCCC3)cc2NC(=O)Cc2ccc(OC)cc2)CC1 | -6 | -1.8% | 4% | / | 6% | -11 | -22%[15.4 µM]
O=C1COc2ccc(C(=O)COC(=O)c3cnc(Cl)c(Cl)c3)cc2N1 | -19 | / | -14% | 2.1 | -26% | -4 | 24%
CCn1nc(C)c(Br)c1-c1nc(CS(=O)(=O)c2ccsc2)no1 | / | -2.2% | 2% | 1.7 | 4% | -13 | ?
Cc1cc(/C=C(\C#N)C(=O)NCc2cccs2)c(C)[nH]1 | 6 | / | / | 1.4 | -14% | -54 | -2%[15.4 µM]
CCCc1cc(=O)[nH]c(/N=C(/NC(=O)c2ccccc2)Nc2ccc3c(c2)OCCO3)n1 | / | 2.4% | 14% | / | / | -21 | -4%
Cc1cc(C)cc(NC(=O)C2CC3CCC2C3)c1 (stereo unspecified) | -16 | -0.1% | 0% | 4.9 | 27% | -2 | 10%
Cc1c(Cl)cccc1NC(=O)CNC(=O)CCCc1nc2ccccc2c(=O)[nH]1 | 13 | -5.1% | 5% | / | / | -19 | 2%
O=C(NCc1ccccc1)c1ccc(Cl)c(S(=O)(=O)N2CCCC2)c1 | / | -0.5% | -12% | / | / | -3 | ?

(listing goes on)
| mol | TRPV1 potentiator | ClpP mod | gsp antagonist | Menin MLL FP FL | Sfp PPTase inh | D2 PAM | gsp agonist |
| --- | --- | --- | --- | --- | --- | --- | --- |
| CC(=O)N1N=C(c2ccc(C)cc2)OC1c1ccc(C)cc1 (stereo unspecified) | -12 | -3.8% | 3% | 0.9 | 15% | -5 | 3% |
| O=C(Nc1nc(-c2ccccc2)cs1)c1cccc(S(=O)(=O)N2CCN(Cc3ccccc3)CC2)c1 | 12 | 2.0% | -5% | 0.9 | 11% | -10 | -4%[15.4 µM] |
| Cc1ccc(C2C(C(=O)c3cc4ccccc4o3)=C(O)C(=O)N2c2cc(C)on2)cc1 (stereo unspecified) | -2 | / | 25% | / | 15% | -7 | 92%[15.4 µM] |
| CCCCc1ccc(NC(=O)CSCc2cc(=O)[nH][nH]2)cc1 | -6 | -3.1% | 7% | 3.4 | 17% | -2 | 3% |
| O=C(Nc1cc(Br)ccc1O)c1cc(-c2ccco2)on1 | 6 | 0.1% | -27% | / | -14% | 3 | 19%[15.4 µM] |

Gathered by group: the compounds so far containing a halogen
| mol | TRPV1 potentiator | ClpP mod | gsp antagonist | Menin MLL FP FL | Sfp PPTase inh | D2 PAM | gsp agonist |
| --- | --- | --- | --- | --- | --- | --- | --- |
| CC1CC1c1ccc(/C=C(\C#N)C(=O)Nc2cccc(Cl)c2Cl)o1 (stereo unspecified) | 2 | 0.0% | 5% | -5.8 | -9% | -17 | -37% |
| NS(=O)(=O)c1ccc(NCc2ccccc2OCc2ccc(F)cc2)cc1 | ? | -5.9% | -7% | -0.7 | -7% | 5 | -2% |
| O=C(Nc1cc2c3c(c1)CC(=O)N3CCC2)c1ccc(Br)o1 | -13 | 6.0% | -7% | / | / | -19 | -55%[inhibitor] |
| COc1ccc(CCC(=O)NCc2cccc(C(F)(F)F)c2)cc1 | -18 | -1.1% | 3% | 4.7 | 17% | -6 | 5% |
| O=C1COc2ccc(C(=O)COC(=O)c3cnc(Cl)c(Cl)c3)cc2N1 | -19 | / | -14% | 2.1 | -26% | -4 | 24% |
| CCn1nc(C)c(Br)c1-c1nc(CS(=O)(=O)c2ccsc2)no1 | / | -2.2% | 2% | 1.7 | 4% | -13 | ? |
| Cc1c(Cl)cccc1NC(=O)CNC(=O)CCCc1nc2ccccc2c(=O)[nH]1 | 13 | -5.1% | 5% | / | / | -19 | 2% |
| O=C(NCc1ccccc1)c1ccc(Cl)c(S(=O)(=O)N2CCCC2)c1 | / | -0.5% | -12% | / | / | -3 | ? |
| O=C(Nc1cc(Br)ccc1O)c1cc(-c2ccco2)on1 | 6 | 0.1% | -27% | / | -14% | 3 | 19%[15.4 µM] |

An unsorted share of the library. Share with any hit: about 5.1%.
